HIV Env fusion – blocks HIV Env-driven cell-cell fusion; HeLa-JRFL Env/CEM21 cell fusion, luciferase; inhibition, % at 12.3 µM; hit rate 1.1% among 360,000;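 active = mean replicate inhibition score of at least 50 and every replicate individually at or above 50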;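 also: 0% = plate neutral controls and 100% = maraviroc near 300 nM; one replicate is shown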
* = called active by the depositor; [ ] = dose if it differs, or a comment. Only part of the results is shown; rates above refer to the full screens.

The first 2 records, ahead of the listing:
Screening CO[C@@H]1CN(C)C(=O)c2ccc(NC(=O)C3CC3)cc2OC[C@H](C)N(Cc2cc(F)ccc2F)C[C@H]1C returned HIV Env fusion 6.6[16.7 µM].
CCC(=O)N[C@@H]1CC[C@@H](CC(=O)NCc2ccccc2F)O[C@H]1CO was read as HIV Env fusion 12.7[16.7 µM].

Results, from the first entry:
Screening CO[C@@H]1CN(C)C(=O)c2ccc(NC(=O)C3CC3)cc2OC[C@H](C)N(Cc2cc(F)ccc2F)C[C@H]1C returned HIV Env fusion 6.6[16.7 µM].
CCC(=O)N[C@@H]1CC[C@@H](CC(=O)NCc2ccccc2F)O[C@H]1CO was read as HIV Env fusion 12.7[16.7 µM].
For CO[C@H]1CC[C@@H]2CCN(C)C(=O)[C@H](C)N(C)C(=O)c3cccc(C#N)c3OC[C@@H]1O2 the results were HIV Env fusion 27.4[16.7 µM].
For O=C([C@H]1N[C@H]2c3ccc(/C=C/c4ccccc4)c(=O)n3C[C@H]2[C@@H]1CO)N1CCCCC1 the results were HIV Env fusion -7.5[16.7 µM].
`CO[C@H]1CN(C)C(=O)c2cc(NC(=O)c3cc(C)on3)ccc2OC[C@@H](C)N(CC2CC2)C[C@@H]1C` gave HIV Env fusion 15.7[16.7 µM].
`CC(=O)Nc1ccc2c(c1)C(=O)N(C)[C@H]1CC[C@H](CC(=O)Nc3cn(C)nc3C)O[C@@H]1CO2` gave HIV Env fusion -3.5[16.7 µM].
CN1C(=O)c2cc(NC(=O)c3ccccc3F)ccc2OC[C@H]2O[C@@H](CC(=O)NCc3ccc4c(c3)OCO4)CC[C@@H]21 was read as HIV Env fusion 0.7[16.7 µM].
`N#C[C@@H]1[C@H](c2ccc(C#Cc3ccccc3F)cc2)[C@H](CO)N1C(=O)C1CCCC1` gave HIV Env fusion -11.8[16.7 µM].
CCCNC(=O)Nc1ccc2c(c1)C(=O)N(C)C[C@H](OC)[C@H](C)CN(C(=O)CC)[C@@H](C)CO2 was read as HIV Env fusion 12.3[16.7 µM].
Screening C[C@@H]1CN([C@@H](C)CO)C(=O)c2cccc(NS(C)(=O)=O)c2O[C@@H]1CN(C)C(=O)Nc1cccc2ccccc12 returned HIV Env fusion -11.0[16.7 µM].
For O=C(C[C@@H]1CC[C@H]2[C@@H](COC[C@@H](O)CN2C(=O)c2ccc(F)cc2)O1)N1CCCCC1 the results were HIV Env fusion 8.3[16.7 µM].
Screening O=C(NCC(F)(F)F)[C@H]1[C@H](CO)[C@H]2Cn3c(cccc3=O)[C@H]2N1Cc1cccc(F)c1 returned HIV Env fusion -4.6[16.7 µM].
O=C(NCC[C@@H]1CC[C@H](NC(=O)C2CCOCC2)[C@H](CO)O1)c1cc(Cl)cc(Cl)c1 was read as HIV Env fusion -70.5[16.7 µM].
`C[C@H](NC(=O)[C@@H]1[C@@H](CO)[C@@H]2Cn3c(ccc(-c4ccncc4)c3=O)[C@@H]2N1C)c1ccccc1` gave HIV Env fusion 0.1[16.7 µM].
Screening O=C(Nc1ccc2c(c1)[C@@H]1C[C@@H](CC(=O)N3CCc4ccccc4C3)O[C@H](CO)[C@@H]1O2)C1CCOCC1 returned HIV Env fusion -2.4[16.7 µM].
`CO[C@H]1CN(C)C(=O)c2cc(NC(=O)C3CC3)ccc2OC[C@@H](C)N(C(=O)C2CCOCC2)C[C@@H]1C` gave HIV Env fusion 2.7[16.7 µM].
For CO[C@H]1CN(C)C(=O)c2cc(NC(=O)C3CC3)ccc2OC[C@H](C)N(CCC(F)(F)F)C[C@@H]1C the results were HIV Env fusion -8.4[16.7 µM].
For CN(C)C(=O)N1CCN(C(=O)[C@@H](Cc2ccccc2)NC(=O)[C@H]2O[C@@H](n3ccc(N)nc3=O)[C@H](O)[C@@H]2O)CC1 the results were HIV Env fusion 10.8.
Screening COC(=O)[C@H](Cc1ccccc1)N1CC2=CCCC=C[C@H]2[C@@H]1[C@@H](O)Cc1ccccc1 returned HIV Env fusion 16.4[16.7 µM].
For CCCNC(=O)Nc1ccc2c(c1)C(=O)N(C)C[C@H](OC)[C@@H](C)CN(C(=O)CC)[C@H](C)CO2 the results were HIV Env fusion -1.3[16.7 µM].
Screening COc1ccc(CN(C)C[C@H]2OCCCC[C@@H](C)Oc3ccc(NC(=O)C4CCCCC4)cc3C(=O)N([C@H](C)CO)C[C@@H]2C)cc1 returned HIV Env fusion -28.0[16.7 µM].
CO[C@H]1CC[C@@H]2CCN(C)C(=O)[C@@H](C)[C@H](OC)CN(C)C(=O)c3cc(C#N)ccc3OC[C@H]1O2 was read as HIV Env fusion -5.6[16.7 µM].
Screening CO[C@H]1CN(C)C(=O)c2ccc(NC(=O)c3cnccn3)cc2OC[C@@H](C)NC[C@H]1C returned HIV Env fusion 5.1[16.7 µM].
For COc1ccc(OC(=O)N(C)C[C@H]2OCc3ccccc3-c3ccccc3C(=O)N([C@@H](C)CO)C[C@H]2C)cc1 the results were HIV Env fusion 23.5[16.7 µM].
`O=C(C[C@H]1CC[C@@H]2[C@H](COC[C@H](O)CN2C(=O)c2ccccc2)O1)N1CCOCC1` gave HIV Env fusion -26.2[16.7 µM].
`CN(C)c1ccc2c(c1)[C@@H]1C[C@@H](CC(=O)NCc3ccc4c(c3)OCO4)O[C@H](CO)[C@@H]1O2` gave HIV Env fusion -0.4[16.7 µM].
For C[C@@H]1CN([C@@H](C)CO)C(=O)Cc2cc(NC(=O)Nc3ccc4c(c3)OCO4)ccc2O[C@@H]1CN(C)S(=O)(=O)c1ccc(F)cc1 the results were HIV Env fusion 24.7[16.7 µM].
For CN1C(=O)c2cc(NC(=O)Nc3ccccc3Cl)ccc2OC[C@@H]2O[C@H](CC(=O)NCCCN3CCOCC3)CC[C@@H]21 the results were HIV Env fusion -1.5[16.7 µM].
For CC(C)NC(=O)Nc1ccc2c(c1)C(=O)N([C@@H](C)CO)C[C@@H](C)[C@@H](CN(C)Cc1ccc(-c3ccccc3)cc1)O2 the results were HIV Env fusion 24.9[16.7 µM].
`CN1C(=O)c2cc(NC(=O)C3CCCCC3)ccc2OC[C@@H]2O[C@H](CC(=O)NCc3ccccc3F)CC[C@@H]21` gave HIV Env fusion 29.7[16.7 µM].

No new results follow: 5 of the compounds above.
`CN(C)c1ccc2c(c1)[C@@H]1C[C@@H](CC(=O)NCc3ccc4c(c3)OCO4)O[C@H](CO)[C@@H]1O2` gave HIV Env fusion -0.4[16.7 µM].
For C[C@@H]1CN([C@@H](C)CO)C(=O)Cc2cc(NC(=O)Nc3ccc4c(c3)OCO4)ccc2O[C@@H]1CN(C)S(=O)(=O)c1ccc(F)cc1 the results were HIV Env fusion 24.7[16.7 µM].
For CN1C(=O)c2cc(NC(=O)Nc3ccccc3Cl)ccc2OC[C@@H]2O[C@H](CC(=O)NCCCN3CCOCC3)CC[C@@H]21 the results were HIV Env fusion -1.5[16.7 µM].
For CC(C)NC(=O)Nc1ccc2c(c1)C(=O)N([C@@H](C)CO)C[C@@H](C)[C@@H](CN(C)Cc1ccc(-c3ccccc3)cc1)O2 the results were HIV Env fusion 24.9[16.7 µM].
`CN1C(=O)c2cc(NC(=O)C3CCCCC3)ccc2OC[C@@H]2O[C@H](CC(=O)NCc3ccccc3F)CC[C@@H]21` gave HIV Env fusion 29.7[16.7 µM].

(cont.)
For CO[C@@H]1CN(C)C(=O)c2cccc(C#N)c2OCC[C@@H]2CC[C@@H](OC)[C@@H](CN(C)C(=O)[C@H]1C)O2 the results were HIV Env fusion -4.7[16.7 µM].
C[C@@H]1CN([C@@H](C)CO)C(=O)c2c(c3ccccc3n2C)-c2ccccc2CO[C@@H]1CN(C)C(=O)CCC(F)(F)F was read as HIV Env fusion -15.3[16.7 µM].
`CC(=O)N1[C@@H]2Cn3c(cccc3=O)[C@H]1[C@@H](C(=O)NC1CCCC1)[C@@H]2CO` gave HIV Env fusion 12.3[16.7 µM].
For CCCCC1O[C@@H](C)[C@@H]2CN3CCc4c([nH]c5ccccc45)[C@@H]3C[C@@H]2N1C (stereo not given in full) the results were HIV Env fusion 10.2.
For COc1ccc(S(=O)(=O)N(C)C[C@@H]2Oc3ccc(NS(=O)(=O)c4ccc(F)cc4)cc3CC(=O)N([C@H](C)CO)C[C@@H]2C)cc1 the results were HIV Env fusion 7.2[16.7 µM].
Screening C[C@@H]1COc2cc(N3CCOCC3)ccc2S(=O)(=O)N1 returned HIV Env fusion -0.6.
For CN(C)C(=O)c1cccc(-c2cccc(-c3nc(C(=O)NCc4ccccc4)cc4c3[C@@H](CCO)N([S@](=O)C(C)(C)C)C4)c2)c1 the results were HIV Env fusion -2.7[16.7 µM].
For CC(C)NC(=O)Nc1ccc2c(c1)C(=O)N([C@@H](C)CO)C[C@@H](C)[C@H](CN(C)C(=O)CCCN(C)C)OCCCC[C@@H](C)O2 the results were HIV Env fusion -0.5[16.7 µM].
For COCC(=O)N(C)C[C@@H]1Oc2cc(C#Cc3cccnc3)ccc2S(=O)(=O)N([C@H](C)CO)C[C@H]1C the results were HIV Env fusion 22.0[16.7 µM].
`C[C@H]1CN([C@@H](C)CO)C(=O)c2cc(-c3ccc(F)cc3)cnc2O[C@@H]1CN(C)C(=O)Cc1ccccn1` gave HIV Env fusion -21.3[16.7 µM].
For C[C@@H]1CN([C@H](C)CO)S(=O)(=O)c2ccc(C#CC3CCCC3)cc2O[C@H]1CN(C)Cc1cncnc1 the results were HIV Env fusion -5.0[16.7 µM].
For COc1ccc(CN(C)C[C@@H]2OCCCC[C@@H](C)Oc3ccc(NC(=O)C4CCCCC4)cc3C(=O)N([C@H](C)CO)C[C@H]2C)cc1 the results were HIV Env fusion 2.6[16.7 µM].
For CN1CCN(C(=O)C[C@@H]2C=C[C@@H](NC(=O)Nc3ccccc3F)[C@@H](CO)O2)CC1 the results were HIV Env fusion -14.2[16.7 µM].
`CC(C)NC(=O)Nc1ccc2c(c1)C(=O)N([C@H](C)CO)C[C@@H](C)[C@@H](CN(C)Cc1ccncc1)OCCCC[C@@H](C)O2` gave HIV Env fusion 27.9[16.7 µM].
CN1C(=O)c2cc(NC(=O)Nc3ccc(Cl)cc3)ccc2OC[C@H]2O[C@H](CC(=O)NCCN3CCCCC3)CC[C@H]21 was read as HIV Env fusion 7.5[16.7 µM].
Screening COCC(=O)N(C)C[C@@H]1Oc2cc(C#Cc3cccnc3)ccc2S(=O)(=O)N([C@H](C)CO)C[C@@H]1C returned HIV Env fusion 15.8[16.7 µM].
Screening Cc1ccc(S(=O)(=O)N(C)C[C@H]2Oc3ccc(NS(=O)(=O)c4cn(C)cn4)cc3CC(=O)N([C@@H](C)CO)C[C@@H]2C)cc1 returned HIV Env fusion -34.8[16.7 µM].
For CNC[C@H]1Oc2ccc(NC(=O)Nc3ccc4c(c3)OCO4)cc2C(=O)N([C@H](C)CO)C[C@H]1C the results were HIV Env fusion 6.9[16.7 µM].
C[C@@H]1CN([C@@H](C)CO)C(=O)c2cc(Br)cnc2O[C@H]1CN(C)C(=O)C1CCC1 was read as HIV Env fusion -3.6[16.7 µM].
Screening C#CCNC[C@@H]1CSCCS(=O)(=O)N1 returned HIV Env fusion -4.6.
O=C1[C@H](Cc2ccccc2)CCn2cc(nn2)COCC2CCCN12 (stereo not given in full) was read as HIV Env fusion -28.1[16.7 µM].
Screening CO[C@H]1CN(C)C(=O)c2ccc(NC(=O)c3nc4ccccc4s3)cc2OC[C@@H](C)N(Cc2cccnc2)C[C@H]1C returned HIV Env fusion 7.1[16.7 µM].
`C[C@@H]1CN([C@H](C)CO)C(=O)c2cc(NS(=O)(=O)c3ccccc3)ccc2O[C@H]1CN(C)C(=O)Nc1ccc(C(F)(F)F)cc1` gave HIV Env fusion -14.9[16.7 µM].
For C[C@H](CO)N1C[C@H](C)[C@@H](CN(C)Cc2ccncc2)Oc2ccc(NC(=O)Nc3ccc4c(c3)OCO4)cc2C1=O the results were HIV Env fusion 6.0[16.7 µM].
Screening COc1cccc(CNC(=O)[C@H]2CCCN2C(=O)C2CCCN2C(=O)c2ccc(OC)c(F)c2)c1 (stereo not given in full) returned HIV Env fusion -29.7.
`C[C@@H]1CCCCO[C@H](CN(C)CC2CC2)[C@@H](C)CN([C@@H](C)CO)C(=O)c2cc(NS(=O)(=O)c3ccccc3)ccc2O1` gave HIV Env fusion -16.5[16.7 µM].
C[C@H](CO)N1C[C@H](C)[C@@H](CN(C)C(=O)c2ccc(F)cc2)Oc2ncc(Br)cc2C1=O was read as HIV Env fusion 0.0[16.7 µM].
Screening COCC(=O)Nc1ccc2c(c1)C(=O)N(C)C[C@@H](OC)[C@@H](C)CN(Cc1cc(F)ccc1F)[C@@H](C)CO2 returned HIV Env fusion 18.4[16.7 µM].
`C[C@@H]1CCCCO[C@@H](CN(C)Cc2ccc(C(F)(F)F)cc2)[C@@H](C)CN([C@@H](C)CO)C(=O)c2cc(NC(=O)Cc3ccccc3)ccc2O1` gave HIV Env fusion 34.8[16.7 µM].
Screening C[C@H]1CN([C@@H](C)CO)C(=O)c2cccc(NC(=O)Nc3cccc4ccccc34)c2O[C@H]1CN(C)S(=O)(=O)c1ccc(F)cc1 returned HIV Env fusion 12.0[16.7 µM].
Screening COC(=O)C[C@@H]1CC[C@H]2[C@H](COc3ccc(NS(=O)(=O)c4ccccc4Cl)cc3C(=O)N2C)O1 returned HIV Env fusion -10.4[16.7 µM].
Screening O=C(CCN1CCCCC1)NCC[C@H]1CC[C@@H](NS(=O)(=O)c2cccc(Cl)c2)[C@H](CO)O1 returned HIV Env fusion 4.9[16.7 µM].
O=C(NC[C@H]1CC[C@H]2[C@H](CN2Cc2cccc(Cl)c2)O1)C1CCOCC1 was read as HIV Env fusion -18.5[16.7 µM].
`CC(C)NC(=O)N(C)C[C@H]1Oc2ccc(NS(=O)(=O)c3cccs3)cc2C(=O)N([C@@H](C)CO)C[C@@H]1C` gave HIV Env fusion 21.5[16.7 µM].
C[C@@H]1CN([C@@H](C)CO)C(=O)c2cccc(NC(=O)Nc3cccc4ccccc34)c2O[C@H]1CN(C)S(=O)(=O)c1ccc(F)cc1 was read as HIV Env fusion 2.7[16.7 µM].
Screening COc1cccc(CN2CCC3(CC2)CN(S(C)(=O)=O)[C@@H](CO)c2[nH]c4cc(OC)ccc4c23)c1 returned HIV Env fusion -13.1[16.7 µM].

High-throughput results deposited in PubChem by Broad Institute.
